VACV E9 pol inh – inhibitors of vaccinia virus processive DNA synthesis (E9 polymerase). actives 0.94% (n = 46,000). in vitro processive DNA synthesis, absorbance read-out; hits give low values; some inactives read as strong as hits. normalized absorbance, % (no concentration beside the values);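 active = replicate mean up to 90% and picked by the depositor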;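 note: 100% = median of the test wells of a plate; 100 nL library stock went into each well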
Active calls of the source: *. An excerpt; rates above refer to the full screens.

SMILES	VACV E9 pol inh
CC(C)Oc1ccccc1C(=O)NC(CO)C(=O)O (stereo unspecified)	96.7
Cc1ccc(Cn2ncc3c(Nc4ccc(C)cc4)ncnc32)cc1	105.2
O=C(Cc1ccccc1)OCCN1CCCCC1	102.6
CN(C)c1c(C(C#N)=C(C#N)C#N)c2ccccc2n1C	97.8
COc1ccccc1OCC(=O)Nc1sc2c(c1C#N)CCCC2	106.2
COc1cc2c(cc1OC)CN(C(=O)CSc1nnc3ccc4ccccc4n13)CC2	110.9
CS/C(Nc1cccc(Cl)c1Cl)=C(/C#N)C(=O)c1cccs1	105.8
Cc1cccc(C(=O)Nc2ccc(NC(=O)c3cccs3)cc2)c1	100.1
Cc1cc(C)cc(C(=O)NCC(=O)N2CCN(c3cccc(Cl)c3)CC2)c1	79.4
CC(C)(C)N(CCO)C(=O)CN1C(=O)/C(=C/c2cccc(Br)c2)SC1=S	100.1
COC(=O)c1cc2occc2n1Cc1ccccc1	101.5
CSc1ccc(/C=c2/sc3nc4c(C)c(C)ccc4n3c2=O)cc1	100.8
O=C(c1nnc(-c2ccccc2)o1)C1CCCC1	83.9
O=C1CCC(C(=O)OCC(=O)NC23CC4CC(CC(C4)C2)C3)N1 (stereo unspecified)	98.0
O=c1c2ccccc2c(C=Nc2ccccc2Cl)c(O)n1-c1ccc(Cl)cn1	98.0
CCCCn1c(CO)nc2ccccc21	102.6
c1coc(-c2nnc3n2CCCCC3)c1	104.7
COc1ccc(-c2nc3ncnn3cc2C)cc1F	87.9
CCOC(=O)c1cc2ccc(OCc3ccccc3)cc2oc1=O	99.9
[O-][n+]1onc2c(-c3ccc(Cl)cc3)nnc(-c3ccc(Cl)cc3)c21	100.0
CN1CCC(/C=C/c2cccs2)=N1	92.8
O=C(CSCc1ccccc1)Nc1cccc(-c2cn3cccnc3n2)c1	97.1
Cc1nnc(-c2cccc(C(F)(F)F)c2)nc1NC(C)(C)C	114.2
Cc1ccc(N2C(=O)C(CC(=O)Nc3ccccc3)N(Cc3ccc4c(c3)OCO4)C2=O)cc1 (stereo unspecified)	102.2
COc1ccc(N2CCN(CCCNC(=S)Nc3c(C)cccc3C)CC2)cc1	98.2
Following part.
SMILES	VACV E9 pol inh
CC(=O)N(C(C)=O)S(=O)(=O)c1ccc(N=NN(C)C)cc1	100.2
C[n+]1noc(NC(=O)C(F)(F)F)c1-c1ccccc1	103.7
C=CCNc1nc(-c2ccccc2)c(C(=O)Nc2cccnc2)s1	99.8
CC1CC(OC(=O)CN2CCCCC2)CC(C)(C)C1 (stereo unspecified)	100.8
Cc1cc(C)nc(S/C=C/C(=O)c2ccc(Cl)cc2)n1	98.0
COC(CNC(=O)C1CCN(Cc2nc(-c3ccc(Cl)cc3)oc2C)CC1)OC	101.1
NC(=O)c1ccccc1OCC(=O)N1CCOCC1	101.3
CC(C)c1ccc(N2CC(C)(C)C2=O)cc1	107.4
O=C(O)CC(Sc1ncn[nH]1)c1ccc(Cl)cc1 (stereo unspecified)	98.9
COc1ccccc1-c1cc(C(=O)N2CCCc3ccccc32)no1	100.9
CCOc1ccccc1Nc1nc2cc(Cl)ccc2o1	102.5
CCc1ccc(-c2nc3c(C#N)c[nH]n3c2NCCC(C)C)cc1	101.2
Cc1ccc(-c2nnsc2-c2nc3ccccc3[nH]2)cc1	101.6
COc1ccccc1NC(=O)c1c(C)nc2ccccc2c1C(=O)O	98.1
C=CCNC(=O)CSc1ncc2c(n1)-c1c(csc1SC)CC2	97.4
CCCN1C(=O)/C(=C2\SC(=S)N(C)C2=O)c2cc(Br)ccc21	88.4
Cc1cc(C)cc(N2C(=O)CCN(Cc3ccccc3)C2=O)c1	102.0
CC(C)c1nnc(NC(=O)c2cc(Br)ccc2Cl)s1	99.4
Cc1c(C)c(C)c(S(=O)(=O)N2CC(C)CC(C)C2)c(C)c1C (stereo unspecified)	100.6
CC(CCc1ccccc1)NCc1c(C(=O)O)n(C)c2ccccc12 (stereo unspecified)	101.3
O=S(=O)(c1ccc(F)c(F)c1)N1CCN(C(c2ccccc2)c2ccccc2)CC1	95.1
COCCN(C(=S)Nc1ccc(C(C)C)cc1)C1CCN(C(C)C)CC1	97.0
CCOC(=O)CC(Nc1nc(N2CCOCC2)nc(N2CCOCC2)n1)c1ccc(C)cc1 (stereo unspecified)	98.1
COc1c(S(=O)(=O)n2cnc(C)c2)ccc(Cl)c1Cl	94.3
N#CC1=C(SCC(=O)c2ccc(F)cc2)NC2(CCCC2)C(C#N)C1=O (stereo unspecified)	97.4
(more compounds)
SMILES	VACV E9 pol inh
Cc1cccc(C=Nc2cccc(O)c2)c1	101.1
CN(C(=O)Cn1nc(Cc2cccnc2)c2ccccc2c1=O)C1CCCCC1	97.0
Oc1ccc(CNc2ccc(Cl)cn2)c2cccnc12	98.4
Cc1cc(C)cc(NC(=O)C(C)Oc2ccccc2)c1 (stereo unspecified)	96.3
CN1C(=O)CCS(=O)(=O)C1c1ccc(Cl)cc1 (stereo unspecified)	100.5
Cn1cc(SCC(=O)Nc2ccc3c(c2)OCCO3)c2ccccc21	98.4
O=C(NCc1ccccc1)C1=Cc2sc3c(c2CS1)CCCC3	106.6
CCc1ccccc1OCC(=O)Nc1ccc(S(N)(=O)=O)cc1	100.5
O=C(CN1C(=O)S/C(=C/c2ccc(Cl)cc2)C1=O)N1CCCCCC1	105.2
CCc1c(C)nc2ccc(C)cc2c1Cl	97.9
CCOC(=O)CCSc1n[nH]c(=S)s1	98.4
O=c1c2ccccc2c(C=NCc2ccncc2)c(O)n1-c1ccccc1Cl	84.9
CO[C@@]1(NC(=O)C(C(=O)O)c2ccc(O)cc2)C(=O)N2C(C(=O)O)=C(CSc3nnnn3C)CO[C@@H]21 (stereo partly specified)	8.0*
N#Cc1ccsc1/N=C/c1ccccc1C(F)(F)F	89.3
COc1ccc(C2OC(=O)c3ccccc3S2)cc1 (stereo unspecified)	100.5
N#CSCc1nc2ccccc2c2nc3ccccc3n12	99.8
CC(C)C(O)(C(=O)OC[C@@H]1CCN2CCC[C@@H]12)C(C)O (stereo partly specified)	100.5
Cc1[nH]c2ccccc2c1-c1ncc(C(F)(F)F)cc1Cl	98.6
COC(=O)C1=C(C)NC(C)=C(C(=O)OC)C1	106.9
O=C(O)CSc1nnc(COc2ccccc2)n1-c1ccccc1	101.2
Cc1cc(-c2c(C(=O)Sc3ccccc3)c(C)nn2-c2ccccc2)no1	101.0
CC(Oc1ccc(Cl)cc1Cl)C(=O)NCCCn1ccnc1 (stereo unspecified)	103.0
CCc1nc(N2CCc3ccccc32)c2sc(=S)n(-c3ccccc3)c2n1	99.6
Nc1nc(Cc2ccc(F)cc2F)no1	88.9
N#CCc1nnc2n1CCCCC2	100.2
The listing continues:
SMILES	VACV E9 pol inh
COc1cccc(-c2nc3sc4c(c3c(=O)o2)CCCC4)c1	90.5
Cc1ccc(OCC(=O)Oc2ccc(C)cc2)cc1	100.2
CCOC(=O)C1CCN(C(=O)CCCn2nc(-c3ccccc3)c3ccccc32)CC1	83.7
COc1ccc(C=C2C(=O)C3(C)CCC2C3(C)C)cc1 (stereo unspecified)	101.5
CC(C)c1ccc2[nH]c3c(c2c1)CCCC3=O	100.9
COc1cc(C(=O)N2CCNCC2)cc(OC)c1OC	106.8
c1ccc(CCNCc2ccccc2)cc1	101.0
c1ccc(Cc2nnc3sc(Nc4ccccc4)nn23)cc1	104.0
Cn1c(C(=O)NCCN2CCCCCC2)cc2sccc21	81.1
O=C(NC1=NCCCCC1)c1cccc2ccccc12	92.1
CC(CCc1ccccc1)NC(=O)CSc1nc2ccccc2[nH]1 (stereo unspecified)	87.5
Cc1cc(-c2ccccc2)n[nH]1	101.5
N=C(N)c1ccc(Cl)cc1	112.7
c1ccc(CC2COC(C3=N[C@@H](Cc4ccccc4)CO3)=N2)cc1 (stereo partly specified)	98.7
Cn1c(C2COc3ccccc3O2)n[nH]c1=S (stereo unspecified)	85.7
NC(=O)CSc1nnc(-c2ccccc2Br)n1Cc1ccccc1	102.0
O=C(CSc1nc2ccccc2c(=O)n1-c1ccccc1)c1ccccc1	100.1
O=C(Nc1ccc2ccccc2c1)C(=O)c1c(O)[nH]c2ccccc12	102.8
CC[N+]1(C)CC2CCC(C)(C1)C2(C)C (stereo unspecified)	100.3
COc1ccc(-c2ccc(C#N)c(=O)[nH]2)cc1	79.2
CCOC(=O)C1=CN(c2ccc(C)c(C)c2)C=C(C(=O)OCC)C1c1ccccc1F	98.3
O=C(c1cccc(F)c1F)N1CCCCC1	97.4
S=C(c1cn(Cc2ccccc2)c2ccccc12)N1CCCCC1	100.0
Cc1nc2sc(C(c3cccc(F)c3)N3CCN(C)CC3)c(O)n2n1 (stereo unspecified)	101.0
O=C1N/C(=C/c2ccc(C(F)(F)F)cc2)C(=O)N1c1ccccc1	100.2

By substructure, the compounds so far containing a Cl atom.
SMILES	VACV E9 pol inh
CS/C(Nc1cccc(Cl)c1Cl)=C(/C#N)C(=O)c1cccs1	105.8
Cc1cc(C)cc(C(=O)NCC(=O)N2CCN(c3cccc(Cl)c3)CC2)c1	79.4
O=c1c2ccccc2c(C=Nc2ccccc2Cl)c(O)n1-c1ccc(Cl)cn1	98.0
[O-][n+]1onc2c(-c3ccc(Cl)cc3)nnc(-c3ccc(Cl)cc3)c21	100.0
Cc1cc(C)nc(S/C=C/C(=O)c2ccc(Cl)cc2)n1	98.0
COC(CNC(=O)C1CCN(Cc2nc(-c3ccc(Cl)cc3)oc2C)CC1)OC	101.1
O=C(O)CC(Sc1ncn[nH]1)c1ccc(Cl)cc1 (stereo unspecified)	98.9
CCOc1ccccc1Nc1nc2cc(Cl)ccc2o1	102.5
CC(C)c1nnc(NC(=O)c2cc(Br)ccc2Cl)s1	99.4
COc1c(S(=O)(=O)n2cnc(C)c2)ccc(Cl)c1Cl	94.3
Oc1ccc(CNc2ccc(Cl)cn2)c2cccnc12	98.4
CN1C(=O)CCS(=O)(=O)C1c1ccc(Cl)cc1 (stereo unspecified)	100.5
O=C(CN1C(=O)S/C(=C/c2ccc(Cl)cc2)C1=O)N1CCCCCC1	105.2
CCc1c(C)nc2ccc(C)cc2c1Cl	97.9
O=c1c2ccccc2c(C=NCc2ccncc2)c(O)n1-c1ccccc1Cl	84.9
Cc1[nH]c2ccccc2c1-c1ncc(C(F)(F)F)cc1Cl	98.6
CC(Oc1ccc(Cl)cc1Cl)C(=O)NCCCn1ccnc1 (stereo unspecified)	103.0
N=C(N)c1ccc(Cl)cc1	112.7

Continued.
SMILES	VACV E9 pol inh
Cc1cccc(N2CCN(C(=O)C3CCCN(S(=O)(=O)c4cccc5nonc45)C3)CC2)c1C (stereo unspecified)	103.7
Cc1cc(C)nc(SC(C#N)c2ccccc2)n1 (stereo unspecified)	91.3
O=c1[nH]c2ccc(Cl)cc2c(-c2ccccc2)c1-[n+]1ccccc1	99.4
Cc1ccc(S(=O)(=O)c2nc(NC3CCS(=O)(=O)C3)sc2Cl)cc1 (stereo unspecified)	95.1
CN(N=O)C(=O)N[C@@H]1[C@@H](O)[C@H](O)[C@@H](CO)O[C@@H]1O	100.6
Cc1cccc(OCC(O)CN2CC(C)CC(C)C2)c1 (stereo unspecified)	126.0
NC(=O)c1c(NC(=O)C2=COCCO2)sc2c1CCCC2	104.6
Cc1ccc(S(=O)(=O)NC(=O)C(C)O)c(C)c1 (stereo unspecified)	98.7
Oc1cccc(Nc2nc(-c3ccc(F)cc3F)cs2)c1	82.8
CN1CCC2(CC1)C(C#N)=C(N)Oc1n[nH]c(C(=O)OC(C)(C)C)c12	100.5
CCC(CC)C(=O)Nc1nnc(-c2ccccc2)s1	100.1
O=C1CC(=Nc2ccc(F)cc2)NN1	97.1
CCOC(=O)CN(c1ccccc1)C1SC(=O)N(Cc2cccc(C(=O)O)c2)C1=O (stereo unspecified)	100.1
COc1cccc(N2CCNCC2)c1	77.9
COc1ccc(C2/C(=C(\O)c3ccccc3)C(=O)C(=O)N2CCN2CCOCC2)cc1 (stereo unspecified)	100.2
OC1(C#CCN2CCCCC2)c2ccccc2C2CCCC21 (stereo unspecified)	98.9
CC(NC(=O)NC1(c2ccccc2)CC1)C12CC3CC(CC(C3)C1)C2 (stereo unspecified)	99.3
Cc1cc(C)nc(SCc2nc3ncccn3c2Br)n1	93.8
O=S(=O)(c1ccc2ccccc2c1)N1CCOCC1	89.3
CCCS(=O)(=O)N1CCN(c2ccc(OC)cc2)CC1	101.9
COc1ccc(C(O)CN2CC=C(c3ccc(N(C)C)cc3)CC2)cc1 (stereo unspecified)	88.0
CN=Cc1cc(-c2ccccc2)sc1S	98.2
CCN(Cc1nnc(-c2ccccc2C)o1)c1ccccc1	100.8
COc1ccccc1Nc1cc(C(=O)N2CCN(Cc3ccccc3)CC2)c2ccccc2n1	102.7
CC(C)CN(C(=O)Nc1ccccc1)C1=NCC(C)S1 (stereo unspecified)	100.5

In the list so far, these have a CF3 group.
SMILES	VACV E9 pol inh
Cc1nnc(-c2cccc(C(F)(F)F)c2)nc1NC(C)(C)C	114.2
C[n+]1noc(NC(=O)C(F)(F)F)c1-c1ccccc1	103.7
N#Cc1ccsc1/N=C/c1ccccc1C(F)(F)F	89.3
Cc1[nH]c2ccccc2c1-c1ncc(C(F)(F)F)cc1Cl	98.6
O=C1N/C(=C/c2ccc(C(F)(F)F)cc2)C(=O)N1c1ccccc1	100.2

(cont.)
SMILES	VACV E9 pol inh
O=C(NC(Cc1c[nH]c2ccccc12)C(=O)O)c1ccccc1Cl (stereo unspecified)	103.2
O=C(O)c1ccc(N=Cc2c(-c3ccccc3)[nH]oc2=O)cc1	98.0
CC(C)c1ccc(NC(=O)c2cccnc2Cl)cc1	100.0
CC1CCCCN1c1ccc(N)cc1C(N)=O (stereo unspecified)	105.3
O=C(Cn1c(=O)oc2cc(S(=O)(=O)NCc3ccccc3)ccc21)N1CCOCC1	88.9
NC(=O)c1cc(Br)c(O)c(Br)c1	100.8
CCN(CC)C(=O)c1cc(-c2ccco2)nc2ccccc12	87.2
CCCn1c(-c2ccc(N)cc2)nc2ccccc21	92.3
Cn1c2ccccc2c2nnc(SCc3ccc(F)cc3Cl)nc21	99.2
O=C(CSC1CCCCC1)Nc1ccc(F)cc1	100.6
O=C(O)C1CCCCC1C(=O)Nc1ccc2[nH]c(=S)sc2c1 (stereo unspecified)	98.1
COC(=O)c1cc2ccccc2[nH]1	94.5
Clc1ccc(-c2cc(-n3cnc4ccccc43)n[nH]2)cc1	95.7
O=C(CCCc1c[nH]c2ccccc12)NC1=NCCS1	112.5
CCOC(=O)c1c(NC(C)=O)nc(SC)n1Cc1ccco1	100.9
Cn1c(N2C(=O)c3cccc4cccc(c34)C2=O)nc2ccccc21	87.2
